# Beta apoptosis: blocks beta cell apoptosis. INS-1E cytokine-induced death, ATP luminescence, 48 h; percent of positive-control rescue, neutral wells zero. protection from apoptosis, % (concentration not given with the values). actives 0.8% (n = 300,000);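 active = all replicates at 75% or more, or half of them and the mean; inconclusive = half reach 75% but not the mean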;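 also: 0% = cytokine-treated negative control wells and 100% = positive control rescue; higher means more ATP so stronger rescue from cytokine killing; wells of about 40 µL received 100 nL stock; the first replicate is given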
# AF4-AF9 inh: blocks AF4 peptide binding to human AF9. inhibition, % at 10 µM. AlphaScreen, biotin-AF4 peptide binding to FLAG-AF9. actives 0.47% (n = 350,000). P42568;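 active = every replicate reaching a set inhibition limit, whatever the replicate mean, cut at about 25% in these data; inconclusive = mean inhibition reaches that limit but some replicates miss it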;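 also: 0% = plate neutral control median and 100% = total signal loss; the record names both 10 and 1 µM as test concentration; the first replicate is given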
# Target sequence (P42568 whole entry, looked up): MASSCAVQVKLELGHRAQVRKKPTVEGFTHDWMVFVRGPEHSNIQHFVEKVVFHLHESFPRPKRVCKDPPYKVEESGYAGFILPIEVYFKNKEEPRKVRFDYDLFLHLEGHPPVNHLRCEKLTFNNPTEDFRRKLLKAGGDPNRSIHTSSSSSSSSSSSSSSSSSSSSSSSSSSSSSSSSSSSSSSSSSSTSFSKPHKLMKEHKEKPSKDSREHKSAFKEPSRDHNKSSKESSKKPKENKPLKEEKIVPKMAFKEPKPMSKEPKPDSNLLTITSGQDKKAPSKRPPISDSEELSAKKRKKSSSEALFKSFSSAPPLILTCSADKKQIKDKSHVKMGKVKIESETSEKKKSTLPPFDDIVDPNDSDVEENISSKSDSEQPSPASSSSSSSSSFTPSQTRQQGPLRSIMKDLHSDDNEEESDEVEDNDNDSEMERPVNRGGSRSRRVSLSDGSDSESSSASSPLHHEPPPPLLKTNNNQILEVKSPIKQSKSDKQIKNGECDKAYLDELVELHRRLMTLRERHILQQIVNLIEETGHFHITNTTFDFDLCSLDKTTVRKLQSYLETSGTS
# T cruzi inh: T. cruzi replication inhibition | T. cruzi beta-gal in NIH3T3, luminescence, 90 h | inhibition, % (test concentration not listed) | actives 1.4% (n = 300,000) | AID 1885;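 active = mean inhibition across valid replicates above about 55%, limit read from the data; inconclusive = mean below that limit but half or more replicates reach it; inactive = mean below it, under half of replicates reach it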;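 also: signal also drops with host cell toxicity which is not excluded here; 0% = plate median of DMSO wells and 100% = zero luminescence signal; higher percent means less beta-gal luminescence so fewer parasites; stock transfer was 50 nL into about 50 µL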
# FGF22 binding: FGF22 (human) thermal shift binding | AID 651658 | actives 1.5% (n = 340,000) | calls only at 9.99 µM | Q9HCT0 | recombinant FGF22 thermal shift, SYPRO orange fluorescence; percent of sucrose octasulfate shift, DMSO zero;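 active = melting point raised past a set limit in the mean and every replicate; inconclusive = no clear call; three in four hits are not shown here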
# Target sequence (Q9HCT0 whole entry, looked up): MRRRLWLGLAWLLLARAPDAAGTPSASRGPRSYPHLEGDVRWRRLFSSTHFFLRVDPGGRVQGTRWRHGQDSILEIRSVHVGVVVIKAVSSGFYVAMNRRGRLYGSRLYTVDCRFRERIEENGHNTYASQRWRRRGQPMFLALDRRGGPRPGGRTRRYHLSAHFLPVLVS
# rRNA inh HTS: inhibitors of bacterial rRNA selective over humanized ribosomes | E. coli WT GFP vs humanized-ribosome RFP mutants, fluorescence, 24 h; hits give low values; DMSO median 0, no signal -100 | GFP signal change (wild-type ribosome), % (test concentration not listed) | actives 1.6% (n = 350,000);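 active = significant combined selectivity score with lowered wild-type GFP, culture density cut under 30%, mutant RFP and density less affected; inactive = any of these conditions unmet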; also: one replicate is shown; some compounds called inactive have numbers as strong as hits
# A1 inh: inhibitors of the anti-apoptotic protein A1, read as caspase activation; MEF A1-2A-BIM cells, Caspase-Glo 3/7 luminescence, 3 h; percent of clofoctol response, vehicle zero; caspase activation, % (concentration not given with the values); actives 0.066% (n = 330,000);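 active = over half of replicate activation scores above 10%, or exactly half above 10 with the replicate mean above 10; inconclusive = replicate mean below 10 yet half the replicates above 10; inactive = over half of replicates below 10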;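 also: wells of about 30 µL received 50 nL stock; many hits fall short of the cut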
# UCH37 inh: human UCH37 deubiquitinating enzyme inhibition | Q9Y5K5 | purified proteasome/UCH37, Ub-AMC cleavage fluorescence | inhibition, % (test concentration not listed) | actives 0.33% (n = 330,000);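 active = mean of two replicates above 20%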;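 also: 0% = compound-free wells with enzyme and 100% = wells lacking proteasome; stock transfer was 100 nL into about 20 µL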
# Target sequence (Q9Y5K5 whole entry, looked up): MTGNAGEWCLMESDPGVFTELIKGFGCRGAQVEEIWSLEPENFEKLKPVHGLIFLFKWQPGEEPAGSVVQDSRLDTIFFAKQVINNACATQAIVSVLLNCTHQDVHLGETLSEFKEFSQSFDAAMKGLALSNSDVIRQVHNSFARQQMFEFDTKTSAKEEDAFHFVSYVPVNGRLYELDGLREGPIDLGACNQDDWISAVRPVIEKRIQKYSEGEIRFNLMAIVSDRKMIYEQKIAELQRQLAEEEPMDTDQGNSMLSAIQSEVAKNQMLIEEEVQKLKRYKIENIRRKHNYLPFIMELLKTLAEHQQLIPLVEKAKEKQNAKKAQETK
#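 Material: Human UCH37 enzyme supplied as purified proteasome complex | Schedule: 30 min preincubation with enzyme, 25 min cleavage at room temperature | Detection: AMC fluorescence 355/460 nm | Measure: % inhibition of Ub-AMC cleavage fluorescence | Controls: Wells without proteasome as full block, compound-free enzyme plus substrate as uninhibited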
# Ecoli growth: blocks Escherichia coli growth | OD600, 23 h; hits give low values | OD600 absorbance (test concentration not listed) | actives 0.21% (n = 330,000) | AID 1053175;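 active = OD600 absorbance below the run mean of sample wells minus 3.6 SD, in any replicate, cut at about 0.56 in these data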;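 also: stock transfer was 300 nL into about 60 µL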
# rRNA inh HTS OD600: second read-out of rRNA inh HTS, no call of its own (marks repeat the call); OD600 change, %; measured here: OD600 growth;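 optical density of the mix in the first replicate; 0 = DMSO median and -100 = no signal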
# rRNA inh HTS RFP: also measured in rRNA inh HTS; calls as there; RFP signal change, %; measured here: RFP humanized mutant strains;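 first replicate; 0 = DMSO median and -100 = no signal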
# An asterisk follows results filed as active; i = inactive; u = inconclusive; x = not tested or not shown. A portion of the library; the hit share may differ from the screen's.
Compound	Beta apoptosis	AF4-AF9 inh	T cruzi inh	FGF22 binding	rRNA inh HTS	rRNA inh HTS OD600	rRNA inh HTS RFP	A1 inh	UCH37 inh	Ecoli growth
COc1ccc(NC(=O)CSCC(=O)Nc2cc(Cl)ccc2N2CCOCC2)cc1	3.3	-0.6	3.2	i	-7.1	-13.9	-0.6	-0.4	1.2	0.675
Cc1ccc(S(=O)(=O)NCC(=O)OCC(=O)Nc2ncc(Cl)cc2Cl)cc1	0.9	x	-5.1	x	x	x	x	-0.7	0.2	0.704
Cc1cc(S(=O)(=O)N2CCCCC2CCNC(=O)C(=O)NCC2CCCO2)ccc1F (stereo not given)	6.9	-3.8	0.4	i	-0.3	15.9	-0.3	-0.2	x	x
O=C(CSc1nc2cccnc2n1Cc1ccccc1)NCc1ccco1	-11.4	x	-2.9	x	x	x	x	0.0	0.0	0.751
O=C(NC1CCCc2ccccc21)c1cc(S(=O)(=O)N2CCOCC2)ccc1F (stereo not given)	-2.2	-0.6	7.6	i	8.3	-0.9	1.4	0.5	-1.3	0.632
CCN1CCN(C(=O)CN(c2ccccc2C)S(C)(=O)=O)CC1	-5.6	x	-4.1	x	x	x	x	0.6	3.9	0.694
CCN(Cc1ccccc1)C(=O)CSc1nc(C)cc(=O)[nH]1	2.6	-3.5	-6.1	x	1.3	-10.7	-0.6	0.2	-1.5	0.695
Cc1ccc(C(=O)C(OC(=O)CN2C(=O)c3ccccc3C2=O)c2ccccc2)cc1C (stereo not given)	-10.8	-22.6	-23.6	i	11.4	0.7	1.4	-0.3	3.7	0.685
O=C(Nc1nc2ccccc2[nH]1)c1cccs1	8.7	0.3	-2.9	i	34.0	22.4	0.6	-4.6	-9.2	0.737
CCCN(CC(=O)Nc1cc(Cl)ccc1Cl)C(=O)c1ccccc1SCC(=O)N1CCCC1	0.4	6.8	4.9	x	-9.1	-14.6	-1.4	0.1	2.2	0.676
Cc1ccc(N(C=NC#N)CC(=O)N2CCN(c3ccccc3)CC2)cc1	-5.9	x	1.6	x	x	x	x	-0.9	6.3	0.697
CC(C)(C#CC(O)(c1ccccc1)c1ccccc1)N1CCCCC1	-0.8	0.3	6.9	i	0.2	5.0	1.0	0.3	2.0	0.686
O=C(/C=C/c1ccccc1[N+](=O)[O-])NC1CCCC1	-0.7	x	-4.0	x	x	x	x	0.0	0.7	0.743
CCOC(=O)c1c(C)[nH]c(C)c1S(=O)(=O)N(C)CC(=O)N1CCN(c2ccc(OC)cc2)CC1	4.4	3.9	-6.7	i	0.4	-0.9	7.6	0.9	2.3	0.698
O=C(Cc1c[nH]c2ccccc12)N1CCN(S(=O)(=O)c2ccc(Cl)cc2)CC1	x	8.0	x	i	-2.5	-9.6	7.5	x	3.1	0.66
CC(=O)c1ccc(N2CCN(C(=O)C3CCN(S(=O)(=O)c4cccs4)CC3)CC2)cc1	7.5	-1.0	3.1	i	2.4	10.0	-0.1	-0.4	2.8	0.693
COCCN(C(=O)COC(=O)CSc1ccc(Cl)cc1)c1c(N)n(Cc2ccccc2)c(=O)[nH]c1=O	0.0	4.6	-3.6	i	9.5	11.0	1.4	0.4	2.2	0.679
O=C(COC(=O)c1ccc(O)cc1O)NC1CCS(=O)(=O)C1 (stereo not given)	-0.8	-11.9	-2.8	i	9.0	2.0	2.0	-0.2	0.5	0.668
O=C(NCc1n[nH]c(=O)c2ccccc12)C1CC(=O)N(c2ccccc2)C1 (stereo not given)	-2.2	-9.8	-8.5	i	1.4	-0.4	0.4	-0.3	0.2	0.719
Cc1nnc(C)c2c(C)n(-c3cccc4cccnc34)c(C)c12	x	x	22.5	x	x	x	x	1.9	-3.2	0.679
COc1ccc(CC(=O)Nc2nnc(-c3cccc([N+](=O)[O-])c3)s2)cc1	3.0	2.5	-1.8	i	4.5	11.6	-7.2	0.4	3.3	0.805
CCN1C=C(Cc2ccccc2C)C2=C(C1)C(c1ccccc1C)C(C#N)=C(N)O2 (stereo not given)	0.4	x	11.1	x	x	x	x	-0.4	-5.6	0.71
Cc1cccc(C2=NNC(=O)C(c3ccc(Cl)cc3)C2)c1 (stereo not given)	-1.2	2.5	-6.6	i	-50.2	-45.6	-4.3	0.3	2.6	0.692
O=C(Nc1cc(=O)[nH]c(=O)[nH]1)c1cccc(Br)c1	4.5	x	-88.9	x	x	x	x	1.4	-0.1	0.699
CCc1nnc(SCC(=O)Nc2ccccc2)n1CC1CCCO1 (stereo not given)	-2.5	-3.0	-17.1	i	16.1	20.2	0.7	-2.7	0.8	0.712
CCCn1cnc2scc(-c3ccc(C)c(C)c3)c2c1=O	-9.0	-6.5	-6.2	i	8.6	6.5	-0.6	0.8	5.4	0.667
Nc1nc(SCC(=O)Nc2ccc(S(N)(=O)=O)cc2)n[nH]1	4.4	-1.5	-12.8	i	4.9	1.1	-0.9	0.2	-0.4	0.688
Cc1ccc(/C=C/C(=O)NCc2ccncc2)cc1	-1.7	x	-4.2	x	x	x	x	-0.3	3.1	x
CSc1ccc(S(=O)(=O)NCc2ccc(Cl)cc2Cl)cc1	-6.0	x	-1.0	x	x	x	x	0.8	0.8	0.681
C/C(=N\NC(=O)c1nnn(-c2nonc2N)c1CSc1ccccc1)c1cccnc1	-7.4	-6.4	3.2	i	-25.0	-21.4	-0.2	-0.2	x	x
CCc1cccc(C)c1NC(=S)NCC(c1cccnc1)N(C)C (stereo not given)	-1.2	-1.3	-13.3	i	10.8	9.8	-0.9	0.1	3.4	0.688
O=C(CCC1CCCCC1)NCc1ccc(F)cc1	1.9	-1.6	-7.3	i	8.4	-4.0	-1.7	-0.2	0.7	0.671
Cc1ccc2nc(NC(=S)NC(=O)c3ccco3)sc2c1	6.3	9.2	-3.8	i	-15.4*	-0.5*	4.7*	-1.3	10.5	0.725
O=C(NCCc1cccc(C(F)(F)F)c1)C1CCC(=O)N(C2CC2)C1 (stereo not given)	2.5	-1.2	-9.0	i	x	x	x	-0.4	-2.2	0.684
Cc1noc(C)c1S(=O)(=O)N(C)C[C@H]1Oc2ccc(NC(=O)C3CCCCC3)cc2C(=O)N([C@H](C)CO)C[C@@H]1C	-3.9	-7.3	x	i	8.8	0.9	4.7	-0.7	-3.0	x
c1ccc(Nc2nc(NCC3CCCO3)c3ccccc3n2)cc1 (stereo not given)	31.3	5.6	93.4*	x	-48.8	-82.0	-10.3	-0.4	-52.5	0.468*
CC1CCC2(CC1)NC(=O)N(CC(=O)Nc1ccc3c(c1)OCCCO3)C2=O (stereo not given)	-7.2	-5.0	x	i	3.2	0.6	0.6	-1.2	0.3	0.666
Cc1c(OCC(=O)NCc2ccccn2)ccc2c3c(c(=O)oc12)CCCC3	4.9	-0.9	6.2	i	4.3	9.3	-1.3	0.5	-29.5	0.737
Cc1ccc(S(=O)(=O)N2CCCCC2)cc1NC(=O)c1ccc(Br)o1	3.2	3.5	x	i	-3.4	-19.6	-0.5	-0.5	-0.7	0.657
CCCc1nc2c(s1)CCc1onc(-c3ccc(OC)cc3)c1-2	x	x	4.5	x	x	x	x	-0.9	2.3	0.691
CC1=CCC2C(=O)N(c3ccc(Br)cc3C)C(=O)C2C1 (stereo not given)	3.5	x	5.2	x	x	x	x	1.0	5.5	0.735
CCOC(=O)CN1C(=O)C(C)(C)Oc2ccc(C(=O)Nc3ccccc3)cc21	1.3	x	13.0	x	x	x	x	-0.2	1.1	0.662
Cc1ccc(C)c(S(=O)(=O)N2CCN(C(=O)c3cnccn3)CC2)c1	-5.3	x	11.3	x	x	x	x	0.5	0.1	0.708
CC(Oc1ccc2ccc(=O)oc2c1)C(=O)NC1CC(C)(C)NC(C)(C)C1 (stereo not given)	-5.0	-2.2	0.9	i	5.9	12.2	1.8	1.5	-33.4	0.672
CCCN(CCC)CCCn1c(=O)[nH]c2ccccc21	0.0	-1.6	-12.3	i	7.2	9.9	1.5	0.5	0.7	0.678
O=C(O)/C(=C\c1cccc(F)c1)c1ccc(S(=O)(=O)N2CCCCC2)s1	-5.1	-1.0	-11.2	i	-14.9	-14.8	-4.3	1.0	1.5	0.713
Cn1c(CNC(=O)c2ccccc2F)nnc1SCc1ccc(F)cc1	1.8	-0.4	-3.6	x	0.9	5.1	0.3	u	4.3	0.689
Cc1ccccc1NC(=S)N/N=C/C(C)c1ccccc1 (stereo not given)	-2.6	-0.6	-11.4	i	-23.1	-28.8	-5.5	-0.5	x	x
COc1cccc(C(=O)Oc2cc3c4c(c2)C(C)=CC(C)(C)N4C(=O)C3=O)c1	36.6	26.2*	-35.0	i	-20.3*	2.7*	-0.4*	-0.2	4.3	0.654
CCOc1ccc2nc(NC(=O)COc3ccc(N(C)S(=O)(=O)c4ccc(C)cc4)cc3)sc2c1	-3.1	-1.2	14.6	i	10.4	6.5	1.0	1.6	2.4	0.714
COc1cc(OC)c(-c2nn3c(C4CCCCC4)nnc3s2)cc1OC	13.4	6.6	23.2	i	-23.1	-17.2	30.7	-0.4	-34.6	0.714
O=C(CSc1ccc(-c2ccco2)nn1)NCCc1ccccc1	-6.4	-4.5	-0.8	i	8.0	7.7	17.2	-0.1	-3.5	0.678
CCCCCCC1(C)NC(=S)N(c2ccccc2)N1 (stereo not given)	2.0	0.0	-6.5	i	15.4	15.6	-2.5	-0.2	x	x
CCO[C@H]1OC(C(=O)NCc2nc3ccccc3[nH]2)=C[C@@H](C)[C@@H]1CCCO	0.0	-1.8	-5.8	i	6.5	20.3	0.9	0.5	4.8	0.797
O=C(CCSc1nnc(-c2ccco2)o1)Nc1ccc(Cl)cc1	0.2	x	0.3	x	x	x	x	-1.2	3.5	0.76
Cc1ccc(CN2CC(C(=O)NC3CCCC(C)C3C)CC2=O)cc1 (stereo not given)	-4.9	0.9	x	i	-12.6	-21.2	-0.9	-1.6	2.0	0.704
Cc1cc(C)c(C#N)c(SCC(=O)c2ccc(Cl)cc2Cl)n1	9.6	-1.0	75.5*	i	9.2	7.3	-6.7	-0.2	2.5	0.677
CCCn1c(SCC(=O)Nc2sc(C)c(C)c2C(=O)OCC)nc2c1c(=O)n(C)c(=O)n2C	x	x	-12.6	x	x	x	x	0.0	-1.3	0.708
COc1cccc(NC(=S)C(C#N)=C2N(C)c3ccccc3N2C)c1	0.4	-0.1	-6.0	i	-6.2	2.7	0.7	-0.1	12.3	0.711
CC(CCc1ccccc1)NC(=O)COC(=O)c1ccc(NC(=O)CC#N)cc1 (stereo not given)	-2.2	-6.2	12.3	i	2.2	2.3	32.0	2.1	3.1	0.662
Cc1ccc(NC(=O)CCNC(=O)c2ccco2)cc1F	-6.6	-1.1	-5.3	x	-8.4	-13.3	5.0	0.9	0.3	0.653
NC(=S)N=Nc1c(O)n(CCCl)c2ccc(Br)cc12	19.3	-1.7	24.9	i	7.2	0.5	0.6	0.0	3.8	0.662
